Menin MLL FP FL = qHTS Assay for Inhibitors Targeting the Menin-MLL Interaction in MLL Related Leukemias: Competition With Fluorescein Labeled MLL-derived Peptide; Fluorescence polarization, fluorescein-MLL peptide displacement from menin; FP activity change, % at 61.4 µM; 290,000 tested, under 10 active; AID 1766, 2009; inconclusive = falling polarisation curve, or a change in total fluorescence; inactive = total fluorescence flat and polarisation flat or rising; no compound was filed as active; the % refers to the polarisation; negative = inhibition;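 note: % of control where 0% means no effect; inhibitors lower the polarisation; unlabelled MLL peptide was the positive control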
gsp antag = qHTS for Antagonists of gsp, the Etiologic Mutation Responsible for Fibrous Dysplasia/McCune-Albright Syndrome: qHTS; Potency, µM (highest dose often 76.9 µM), for the others: top-dose activity change, negative = inhibition, usual class: inhibitors; AID 624288, 2012; gsp-mutant cells, cAMP HTRF, 30 min; control for the full effect not named in the record; hit rate 0.4% among 340,000; active = falling curve of any shape with a large fitted effect; inconclusive = falling curve, mostly with a smaller effect; inactive = flat or rising curve; cell line not stated here;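 note: intracellular cAMP measured with PDE inhibitor Ro 20-1724 present during compound exposure; potency is the fitted concentration of half-maximal effect; % is set by controls: 0 for no effect and ±100 for the full control effect; nearly all actives have a fitted effect of over 65% in size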
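Cells in G418 medium, seeded 16-24 h, 37C; buffer exchange to DPBS + 1 mM CaCl2, 0.5 mM MgCl2, 0.05% BSA; cpds in DMSO + […] (300 uM stock), 30 min 37C; HTRF cAMP detection.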
D2 ag = Beta-Arrestin HTS for Positive Allosteric Modulators of the Human D2 Dopamine Receptor: Agonists. DiscoveRx PathHunter D2 beta-arrestin, luminescence, 90 min; 100% = 57 uM dopamine signal. activation, % (test concentration not listed). hit rate 0.084% among 360,000. D(2) dopamine receptor (Homo sapiens), P14416; in the data active = activation above about 40%; inconclusive = about 15% to 40%; inactive = below about 15%; note: compound concentration not given in the record; the text of the record calls up to 30% inactive
Target sequence (P14416 whole entry, looked up): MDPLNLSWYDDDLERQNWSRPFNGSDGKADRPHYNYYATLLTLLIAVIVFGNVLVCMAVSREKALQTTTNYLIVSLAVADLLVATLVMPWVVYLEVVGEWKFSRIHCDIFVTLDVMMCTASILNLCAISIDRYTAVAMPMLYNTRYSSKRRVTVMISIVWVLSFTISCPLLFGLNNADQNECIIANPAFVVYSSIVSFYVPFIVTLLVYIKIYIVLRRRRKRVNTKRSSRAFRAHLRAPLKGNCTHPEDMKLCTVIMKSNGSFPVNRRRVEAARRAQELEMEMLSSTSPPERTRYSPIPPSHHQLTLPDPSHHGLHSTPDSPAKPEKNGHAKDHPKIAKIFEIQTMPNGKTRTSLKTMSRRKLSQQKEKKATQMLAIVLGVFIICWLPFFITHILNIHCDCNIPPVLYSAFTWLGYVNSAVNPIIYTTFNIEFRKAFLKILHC
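Agonist mode: compounds alone added to overnight-plated D2 PathHunter cells for 90 min at 37 C, with 57 uM final dopamine (EC100) defining full response. Beta-arrestin recruitment detected by chemiluminescent reagent, read after 1 h at ambient temperature.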
PINK1 modulator = A Quantitative High throughput Screen to Identify Chemical Modulators of PINK1 Expression. PINK1 immunofluorescence, high-content cytometry, 24 h. Potency, µM (top dose mostly 76.6 µM), for inactives: at the highest dose activation (PINK1 increase), hits mostly activators. hit rate 0.2% among 410,000. AID 624263, 2012; active = well fitted activation curve with a large enough effect; inconclusive = small, poorly fitted or top-dose-only effect; inactive = flat fitted curve, though single readings scatter; cell line not stated here;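 note: potency is the fitted concentration of half-maximal effect; % of control where 0% means no effect; nearly all actives have a fitted effect of over 65% in size; a mitochondrial uncoupler was the plate control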
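Fluorescence from anti-PINK1 antibody, together with nuclear and cell stains, was scanned on a laser-scanning cytometer. Before staining, stable-line cells were incubated 24 hours with compounds at 5 concentrations; primary antibody 12 h at 10 degrees C.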
gsp agonist = qHTS for Agonist of gsp, the Etiologic Mutation Responsible for Fibrous Dysplasia/McCune-Albright Syndrome: qHTS | gsp mutant cells, cAMP HTRF, 30 min; control for the full effect not named in the record | Potency, µM (series often up to 76.9 µM), inactives show at the top dose activation (cAMP increase), usual class: activators | hit rate 0.13% among 340,000 | AID 624287, 2012; active = well fitted activation curve with a large enough effect; inconclusive = small, poorly fitted or top-dose-only effect, or another doubt; inactive = no such curve, though single readings can be large or run the other way; cell line not stated here;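 note: phosphodiesterase inhibitor Ro 20-1724 added with compounds to block cAMP breakdown; potency is the fitted concentration of half-maximal effect; nearly all actives have a fitted effect of over 60% in size; about a fifth of the inactives were tested at one dose only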
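Cells stably selected in G418 were plated at 2000/well, grown 16-24 hr, then given compounds in DMSO with the PDE inhibitor […] (300 uM solution added) for 30 min at 37C; cAMP was read by HTRF.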
Sfp inh = qHTS Assay for Inhibitors of Bacillus subtilis Sfp phosphopantetheinyl transferase (PPTase); Biochemical Sfp PPTase activity, qHTS; Potency, µM, without a hit: max response, negative = inhibition, usual class: inhibitors; hit rate 3.5% among 310,000; AID 1490, 2009; active = well fitted inhibition curve with a large enough effect; inconclusive = small, poorly fitted or top-dose-only effect, or another doubt; inactive = no such curve, though single readings can be large or run the other way;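 note: the enzyme is Sfp with the accession as filed and its product quenches rhodamine fluorescence; potency is the fitted concentration of half-maximal effect; 0% = enzyme reaction without inhibitor and -100% = no enzyme wells; top concentration of the series not given in the record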
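Sfp 15 nM + cpd, 15 min RT; start w/ rhodamine-CoA 5 uM, BHQ-2-YbbR 12.5 uM (final); 50 mM Hepes pH 7.6, 10 mM MgCl2, 0.01% NP-40, 0.01% BSA; read 525/598 nm at 0 and 30 min.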
ClpP mod = qHTS Assay for Activators of ClpP. Potency, µM (highest dose often 57.5 µM), for the others: at the highest dose activity change, negative = active. hit rate 1.9% among 340,000. ATP-dependent Clp protease proteolytic subunit (Bacillus subtilis (strain 168)), P80244. purified B. subtilis ClpP, FRET peptide cleavage, 20 min; active = well fitted falling curve with a large enough effect; inconclusive = small, poorly fitted or top-dose-only effect; inactive = no such curve, though single readings can be large or run the other way; note: potency is the fitted concentration of half-maximal effect; the source files actives as falling curves though it sought activators and does not explain the sign; nearly all actives have a fitted effect of over 65% in size; many hits overshoot -100%
Target sequence (P80244 whole entry, looked up): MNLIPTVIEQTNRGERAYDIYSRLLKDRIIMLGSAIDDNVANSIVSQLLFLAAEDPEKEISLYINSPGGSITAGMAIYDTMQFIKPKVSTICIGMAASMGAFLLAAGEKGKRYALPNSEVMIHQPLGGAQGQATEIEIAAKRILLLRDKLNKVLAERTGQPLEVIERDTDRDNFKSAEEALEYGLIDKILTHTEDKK
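FRET quenching reversal measured ClpP activation: 10 microg/mL B. subtilis ClpP at pH 8 with the FRET-FV decapeptide, read at 430 nm after 320 nm excitation. The 20-min minus 0-min signal was scaled between DMSO/no-enzyme wells and ADEP (5.8 microM final).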
Active calls of the source: *; ? = inconclusive; . = no result given; [ ] = dose if it differs, or a comment.

SMILES | Menin MLL FP FL | gsp antag | D2 ag | PINK1 modulator | gsp agonist | Sfp inh | ClpP mod
Cc1cn([C@H]2C[C@H](O)[C@@H](CNCc3cccn3-c3nccs3)O2)c(=O)[nH]c1=O | . | . | -3.1 | -0.1% | ? | . | -0.9%
COc1ccc(-c2nc3ccccn3c2NC2CCCCC2)cc1SC1CCCCC1 | . | -7% | 1.2 | ? | ? | . | 4.0%
CCN1C(=O)[C@H]2[C@@H](c3ccc(OC)cc3)N[C@]3(CCCN(Cc4ccc(OC)cc4)C3=O)[C@H]2C1=O | . | . | -3.8 | 2.3% | -46%[inhibitor] | . | 2.2%
O=c1c(O)cc(C2Oc3cc(O)cc(O)c3CC2O)cc2c(C3Oc4cc(O)cc(O)c4CC3O)cc(O)c(O)c12 (centres undefined) | ? | . | . | -0.2% | . | 7.1µM* | .
CC(C)(C)NC(=O)C1CCN(C(=O)c2ccc(-c3ccccc3)cc2)CC1 | -0.8 | -2% | -4.1 | -2.8% | -3% | -5% | 1.4%
O=C(NCCCc1ccncc1)C1CCC(=O)N(Cc2ccc(Cl)cc2)C1 (centres undefined) | -0.9 | 4% | -3.3 | -1.5% | -38%[inhibitor] | 6% | -2.8%
O=C(c1cccs1)N1CCN=C1SCc1cccc(F)c1 | 4.6 | -6% | -4.4 | 1.8% | 5% | 19% | -2.4%
COc1cccc(C2CC(C(F)(F)F)n3ncc(C(=O)NC(C)(C)C)c3N2)c1 (centres undefined) | 7.5 | 7% | -2.2 | 1.9% | 10% | 20% | 0.5%
CCOc1ccccc1NC(=O)CN1C(=O)COc2ccc(Cl)cc21 | 0.7 | -3% | -2.7 | 4.9% | -22% | 31%[activator] | -2.7%
O=C(NN1C(=O)c2ccccc2NC1c1ccccn1)c1ccccc1 (centres undefined) | -1.0 | 9% | -1.4 | 3.1% | 5% | -8% | -3.3%
CC(Sc1nnc(C(F)(F)F)n1C)C(=O)NC(N)=O (centres undefined) | 6.7 | 13% | -0.6 | -0.5% | -14% | 10% | 3.7%
Cc1ccsc1CN(C)C(=O)CN1C(=O)NC2(CCCc3ccccc32)C1=O (centres undefined) | . | -3% | 6.3 | 1.2% | 10% | . | 0.4%
COCC(=O)Nc1ccccc1Br | 8.5 | 11% | -1.3 | -0.8% | -70%[inhibitor] | 30% | -1.3%
CC(C)NC(=O)c1cc(C2CCCCN2C(=O)c2cc(C(C)(C)C)nn2C)on1 (centres undefined) | . | . | 4.7 | 1.6% | . | . | -1.6%
CCc1ccc(NC(=O)C2CCCN2S(=O)(=O)c2ccc3c(c2)C(C)(C)C(=O)N3C)cc1 (centres undefined) | -9.8 | -9% | -4.6 | 1.4% | 3% | 0% | 0.7%
Cn1nnc(NC(=O)c2ccc3ccccc3c2)n1 | -1.4 | -1% | 0.4 | 1.8% | -40% | -12% | ?
O=C(NCC(c1ccco1)N1CCCC1)c1cccc(S(=O)(=O)Nc2ccc(Br)cc2)c1 (centres undefined) | -1.8 | 7% | -3.3 | 2.2% | -30% | 2% | -4.7%
Cc1ccc(S(=O)(=O)N(C(=O)c2ccncc2)c2ccc(OC(=O)c3ccncc3)c3ccccc23)cc1 | 1.2 | -15% | 4.0 | -3.1% | -4%[15.4 µM] | 25µM* | -8.2%
O=C(Nc1ccc2c(c1)OCO2)c1cnn2cccnc12 | -0.2 | 6% | -1.1 | -0.1%[38.3 µM] | 3% | 15% | -6.2%
CCOC(=O)c1c(-n2cnnn2)sc2c1CCCC2 | 5.9 | -8% | 1.2 | -0.6% | 13% | 10% | 3.8%
Cc1ccc(OCC(=O)N/N=C2/SCC(=O)N2Cc2ccco2)cc1 | 0.1 | 1% | 0.8 | -1.6% | -9% | -3% | .
CC(NC(=O)C(=O)NN=C1CCCC1)c1ccccc1 (centres undefined) | 0.8 | 15% | -1.5 | 3.3% | -20%[15.4 µM] | 9% | .
Cc1ccc(C(=O)NN2C(=O)CSC2=S)cc1 | 29 | 11% | -3.3 | 5.7% | 4% | 12% | -2.4%
Nc1cc2sc(-c3ccc(C(=O)O)cc3)nc2cc1Cl | 3.5 | 11% | 12 | 0.7% | ? | 22% | 4.5µM*
Cc1ccc2cc(NC(=O)c3ccc(C(C)(C)C)cc3)ccc2n1 | ? | ? | 5.5 | -0.8% | -25% | 79µM* | -1.3%
CS(=O)(=O)Nc1ccc(C(=O)NCCc2ccccc2)cc1 | 2.5 | 12% | -3.2 | 0.2% | -6% | 11% | 4.1%
O=C(/C=C/c1cccs1)NC(=S)Nc1ccc(C(=O)O)cc1 | 0.6 | ? | -1.9 | 1.3% | -25% | 2% | -1.5%
COc1ccc(S(=O)(=O)NNc2nc(C)cc(C)n2)cc1Br | . | -7% | -11 | -1.6% | 22% | . | 0.1%
C[C@@H]1CN([C@@H](C)CO)C(=O)CCCn2cc(nn2)CO[C@H]1CN(C)S(=O)(=O)c1cccc(C#N)c1 | . | . | -0.6 | 0.2% | 5% | . | 1.8%
COc1ccccc1OCC(=O)NNC(=O)c1ccoc1C | 0.7 | 7% | -3.6 | -1.0% | -17% | -21% | 1.5%
COc1ccccc1/C=C(/CC(=O)NCc1ccc(F)cc1)c1nc2ccccc2s1 | 3.0 | -24% | -2.2 | -0.7% | -2% | 9% | -16%
C/C(=N\NC(=O)Cc1ccccc1)c1ccc(Cl)s1 | . | 9% | -2.8 | 5.9% | 29% | 6% | 0.4%
O=S(=O)(Nc1ccc2ccccc2n1)c1ccccc1Cl | . | 1% | -8.6 | 0.2% | -35% | 12% | 3.9%
O=C(NCCS(=O)(=O)c1ccc(Br)cc1)c1ccc(Cl)cc1Cl | -1.4 | 6% | -2.9 | 3.9% | -46%[inhibitor] | -4% | -3.1%
CCN(CC)c1ccc(CN2CCCCCC2)cc1 | -3.4 | 8% | -1.7 | 3.2% | -2% | ? | -2.1%
CCOC(=O)C1=C(CS(=O)(=O)c2ccccc2)NC(=O)NC1c1ccc(O)c(OC)c1 (centres undefined) | 2.3 | 11% | 6.2 | 1.5% | 7%[15.4 µM] | -2% | .
Cc1ccc(C(=Cc2ccc([N+](=O)[O-])cc2)C(=O)O)cc1 | . | . | -2.7 | 0.6% | -4% | . | 0.9%
CC12CCC(C(=O)N(CC(=O)O)C1=O)C2(C)C (centres undefined) | -1.8 | 8% | -3.5 | 2.2% | 11%[15.4 µM] | 15% | .
Cc1nc2cc(NC(=O)c3cccc(S(C)(=O)=O)c3)ccc2o1 | -15 | 9% | -0.6 | 1.4% | 17%[15.4 µM] | 7% | -2.8%
Cc1ccc(Nc2c(O)nc[nH]c2=O)cc1 | . | 1% | -0.8 | 4.7% | 0% | . | .
Cc1cccc(C)c1NC(=S)N(CCN(C)C)C(C)c1cccnc1 (centres undefined) | 0.6 | -15% | -1.8 | -0.8% | -28%[15.4 µM] | 79µM* | -2.5%
CN(CC(=O)Nc1cccnc1Cl)S(=O)(=O)c1ccc(Cl)cc1 | . | -9% | -8.3 | -1.8% | 12% | 3% | 0.6%
O=C1CCCN1CCC(=O)N1CCCC(Nc2ccc(F)c(F)c2)C1 (centres undefined) | . | 0% | -5.5 | -1.2% | 15%[15.4 µM] | 7% | .
CCCC(=O)Nc1ccc(C(=O)COC(=O)c2c(C)noc2C)cc1 | . | 5% | 0.7 | -1.0% | -54%[15.4 µM] | . | .
O=C(NCc1cc(C(F)(F)F)ccc1F)C1CCC(=O)N(C2CCCCCC2)C1 (centres undefined) | -0.9 | -12% | -0.2 | -0.3% | 1% | 14% | 0.1%
O=C(NCCCCc1ccccc1)c1ccccc1F | -7.1 | -12% | -4.2 | -0.8% | 5% | 3% | 0.4%
COc1cccc(C(N)c2nc(-c3csc4ccccc34)cs2)c1 (centres undefined) | . | . | -2.4 | 5.7% | . | . | -2.6%
CCCCn1c(N)c(N(CC(C)C)C(=O)c2cc(S(=O)(=O)N3CCOCC3)ccc2Cl)c(=O)[nH]c1=O | . | 8% | -8.5 | 2.2% | 16% | . | -0.7%
O=C(CSc1n[nH]c(=O)n1-c1ccccc1)Nc1ccccc1 | 0.7 | 10% | 2.9 | -2.0% | -3%[15.4 µM] | 16% | .
Cc1ccc(NS(=O)(=O)c2cn(C)c(=O)n(C)c2=O)cc1C | -0.6 | -10% | -9.4 | 2.7% | ? | 14% | 0.2%
CCC(C)(C)NC(=O)c1cc([N+](=O)[O-])ccc1N1CCCCC1 | 6.9 | -28% | -3.4 | 0.2% | -74%[inhibitor] | 4% | 2.1%
CCCCn1nc(C(=O)NCC(=O)Nc2c(C)cccc2C)c2ccccc2c1=O | . | 5% | -1.5 | -0.5% | -2% | . | 3.5%
Cc1cc(SCC(=O)c2cccs2)nc2c(C)cccc12 | 17 | -8% | 1.7 | 4.5% | -73% | -4% | -4.4%
O=C(NC1CC1)C1=C[C@H](c2ccc3c(c2)OCO3)C[C@H](OCc2ccc(CO)cc2)O1 | -9.2 | -15% | -2.0 | -0.5% | -1% | 7% | -2.3%
CC(C)(CN1CCNCC1)NS(=O)(=O)c1ccc(Cl)cc1 | . | 8% | -4.5 | -2.1% | -24% | . | -2.7%

Assay outcomes: PubChem BioAssay, National Center for Advancing Translational Sciences (NCATS)
